Assay outcomes: PubChem, Broad Institute
AF4-AF9 inh: blocks AF4 peptide binding to human AF9. AlphaScreen, biotin-AF4 peptide binding to FLAG-AF9. AID 651704. inhibition, % at 10 µM. actives 0.47% (n = 350,000). P42568;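 active means every replicate reaching a set inhibition limit, whatever the replicate mean, cut at about 25% in these data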;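 further: 0% = plate neutral control median and 100% = total signal loss; the record names both 10 and 1 µM as test concentration; the first replicate is given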
Target sequence (P42568 whole entry, looked up): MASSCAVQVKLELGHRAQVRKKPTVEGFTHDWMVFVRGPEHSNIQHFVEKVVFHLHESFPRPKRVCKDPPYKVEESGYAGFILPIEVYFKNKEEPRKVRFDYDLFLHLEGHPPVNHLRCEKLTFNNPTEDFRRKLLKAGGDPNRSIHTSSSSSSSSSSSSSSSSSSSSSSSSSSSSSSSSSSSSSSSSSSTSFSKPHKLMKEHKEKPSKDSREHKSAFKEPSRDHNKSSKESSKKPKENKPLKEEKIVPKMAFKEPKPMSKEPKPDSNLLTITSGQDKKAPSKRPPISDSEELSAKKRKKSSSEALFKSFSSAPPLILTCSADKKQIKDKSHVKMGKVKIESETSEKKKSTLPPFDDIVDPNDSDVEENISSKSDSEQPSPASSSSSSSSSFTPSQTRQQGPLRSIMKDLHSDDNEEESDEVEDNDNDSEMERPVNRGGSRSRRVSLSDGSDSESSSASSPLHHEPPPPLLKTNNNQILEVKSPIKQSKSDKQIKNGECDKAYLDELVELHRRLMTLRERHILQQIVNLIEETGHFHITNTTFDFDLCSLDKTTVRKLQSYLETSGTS
An asterisk follows results filed as active; & = joins results of further samples. The list is partial (hit frequency here may not be typical).

SMILES	AF4-AF9 inh
Cc1ccc(S(=O)(=O)N2CC[C@@H]3[C@H]2c2cc(-c4ccccc4F)ccc2N[C@@H]3CO)cc1	-3.8
COc1cc(CN2CC3(CCN(S(=O)(=O)c4cccs4)CC3)c3c(n(C)c4cc(OC)ccc34)[C@H]2CO)cc(OC)c1	-3.4
C[C@@H]1CCCCO[C@@H](CN(C)C(=O)c2ccccc2)[C@@H](C)CN([C@@H](C)CO)C(=O)c2cc(N(C)C)ccc2O1	3.9
O=C(Cc1ccccc1)N1CC(=O)N2[C@H](CO)[C@H](c3ccc(C#Cc4ccccc4)cc3)[C@@H]2C1	-11
C[C@@H]1CN([C@@H](C)CO)C(=O)c2cc(C3=CCCC3)cnc2O[C@@H]1CN(C)C(=O)c1ccc2c(c1)OCO2	-3.1
Cc1ccccc1S(=O)(=O)N1CCCCN2[C@@H](CO)[C@H](c3ccc(C#CCN(C)C)cc3)[C@@H]2C1	3.1
C[C@H](CCC(=O)OCc1cn(CC(=O)c2ccc(O)cc2)nn1)C1CC[C@H]2[C@@H]3CC[C@@H]4C[C@H](O)CC[C@]4(C)[C@H]3C[C@H](O)[C@]12C (some centres undefined)	-3.9
C[C@H](CO)N1C[C@H](C)[C@H](CN(C)S(C)(=O)=O)Oc2ncc(-c3cccnc3)cc2C1=O	-1.8
Cc1cc(C(O)c2ncc(-c3ccccc3F)[nH]2)ccc1F (centres undefined)	4.3
COC(=O)[C@]12CCCCC=C1N(Cc1cccc3ccccc13)C(=O)[C@H](CC(=O)N1CCN(C(=O)c3ccco3)CC1)C2	10
CN1C(=O)c2cc(NC(=O)C3CCCCC3)ccc2OC[C@@H]2O[C@H](CC(=O)NCc3ccccc3F)CC[C@H]21	0.1
C[C@@H]1CN([C@@H](C)CO)C(=O)Cc2cc(NS(C)(=O)=O)ccc2O[C@@H]1CN(C)S(=O)(=O)c1ccc(F)cc1	-7.1
COc1cccc(CN2CC3(C2)CN(C(=O)C2CC2)[C@@H](CO)c2[nH]c4cc(OC)ccc4c23)c1	4.4
C[C@H](CO)N1C[C@H](C)[C@@H](CN(C)Cc2ccc3c(c2)OCCO3)OCc2cn(nn2)CCCC1=O	1.1
C[C@@H]1CCCCO[C@@H](CN(C)S(=O)(=O)c2cccs2)[C@@H](C)CN([C@@H](C)CO)C(=O)c2cc(NS(=O)(=O)c3cn(C)cn3)ccc2O1	-2.9
CC(C)CC#Cc1ccc2c(c1)O[C@H](CN(C)C(=O)Cc1ccccn1)[C@@H](C)CN([C@@H](C)CO)S2(=O)=O	8.7
CCC(=O)Nc1ccc2c(c1)OC[C@@H](C)N(Cc1cncnc1)C[C@@H](C)[C@@H](OC)CN(C)C2=O	-2.1
C[C@@H]1CN([C@H](C)CO)C(=O)c2c(c3ccccc3n2C)-c2ccccc2CO[C@@H]1CN(C)S(=O)(=O)c1ccc(Cl)cc1	4.8
CO[C@H]1CN(C)C(=O)c2ccc(NC(=O)c3nc4ccccc4s3)cc2OC[C@@H](C)N(Cc2ccncc2)C[C@H]1C	3.0
C[C@H](CO)N1C[C@H](C)[C@@H](CN(C)C(=O)C2CCOCC2)Oc2ncc(Br)cc2C1=O	0.7&-1.0&-3.3
CCCC#Cc1ccc2c(c1)O[C@H](CN(C)Cc1cncnc1)[C@H](C)CN([C@@H](C)CO)S2(=O)=O	3.9
C[C@@H]1CN([C@@H](C)CO)C(=O)c2cc(N(C)C)ccc2O[C@H]1CN(C)C(=O)Nc1ccc(C(F)(F)F)cc1	3.6
CCCNC(=O)N1CC2(CCN(Cc3cccnc3)CC2)c2c(n(C)c3cc(OC)ccc23)[C@H]1CO	2.4
CC(C)C#Cc1cnc2c(c1)C(=O)N([C@@H](C)CO)C[C@@H](C)[C@H](CN(C)C(=O)Nc1ccccc1)O2	-1.9
Cc1cccc(NC(=O)c2ncn3c2C(=O)NC[C@@H]3C)c1	-1.5

Rewritten as labelled records: 4 of the compounds above
O=C(Cc1ccccc1)N1CC(=O)N2[C@H](CO)[C@H](c3ccc(C#Cc4ccccc4)cc3)[C@@H]2C1
  AF4-AF9 inh = -11
C[C@@H]1CN([C@@H](C)CO)C(=O)c2cc(C3=CCCC3)cnc2O[C@@H]1CN(C)C(=O)c1ccc2c(c1)OCO2
  AF4-AF9 inh = -3.1
Cc1ccccc1S(=O)(=O)N1CCCCN2[C@@H](CO)[C@H](c3ccc(C#CCN(C)C)cc3)[C@@H]2C1
  AF4-AF9 inh = 3.1
C[C@H](CCC(=O)OCc1cn(CC(=O)c2ccc(O)cc2)nn1)C1CC[C@H]2[C@@H]3CC[C@@H]4C[C@H](O)CC[C@]4(C)[C@H]3C[C@H](O)[C@]12C (some centres undefined)
  AF4-AF9 inh = -3.9

Other entries:
SMILES	AF4-AF9 inh
COCC(=O)N1C[C@H]2[C@@H](c3ccccc31)[C@@H](CO)N2C(=O)Nc1ccccc1Cl	-1.2
COc1ccc(NC(=O)N(C)C[C@@H]2Oc3c(NC(=O)c4ccncc4)cccc3C(=O)N([C@@H](C)CO)C[C@@H]2C)cc1	-3.7
COCCNC(=O)C1(C)CCCN(CCC(=O)c2ccc(Br)cc2)C1 (centres undefined)	-3.2
C[C@H]1CCCCO[C@H](CN(C)C(=O)Nc2cccc3ccccc23)[C@@H](C)CN([C@@H](C)CO)C(=O)c2cc(NS(=O)(=O)c3ccccc3)ccc2O1	-2.8
CCNC(=O)C[C@H]1CC[C@@H]2[C@@H](COc3ccc(NC(=O)Nc4ccccc4C)cc3C(=O)N2C)O1	0.5
CO[C@H]1CN(C)C(=O)c2ccc(NC(C)=O)cc2OC[C@H](C)NC[C@H]1C	-1.4
CCOC(=O)C1(C)CCCN1C(=O)c1cncc(Br)c1 (centres undefined)	0.2
Cc1ccc(S(=O)(=O)N2C[C@H](O)COC[C@@H]3O[C@@H](CC(=O)N[C@H]4CCN(Cc5ccccc5)C4)CC[C@H]32)cc1	1.6
CCCC#Cc1ccc([C@@H]2[C@@H](CO)N3CCCCN(CC4CCOCC4)C[C@@H]23)cc1	4.8
O=c1[nH]c(SCc2ccc(OC(F)(F)F)cc2)nc2c1CCC2	-1.4
C=C(C)C(O)Cc1c(OC)ccc(C(=O)/C=C/c2ccc(O)cc2)c1O (centres undefined)	3.3
COc1cccc(-c2ccc3c(c2)O[C@@H](CN(C)C(=O)c2ccccc2F)[C@@H](C)CN([C@@H](C)CO)S3(=O)=O)c1	-0.2
COc1ccc(-c2ccc([C@@H]3[C@@H](CO)N4C(=O)CN(Cc5ccc(C)cc5)C[C@H]34)cc2)cc1	5.2
C[C@@H]1CN([C@@H](C)CO)C(=O)Cc2cc(NS(=O)(=O)c3ccc(Cl)cc3)ccc2O[C@@H]1CN(C)C(=O)Nc1ccccc1	-0.3
CC(C)c1cn(CC[C@H]2CC[C@H](NC(=O)C3CCCC3)[C@@H](CO)O2)nn1	-4.1
CO[C@H]1CN(C)C(=O)c2ccc(NC(C)=O)cc2OC[C@@H](C)N(CC2CCCCC2)C[C@H]1C	2.1
Cc1noc(C)c1NC(=O)N(C)C[C@H]1OCCCC[C@@H](C)Oc2ccc(NC(=O)Nc3ccc(C(F)(F)F)cc3)cc2C(=O)N([C@H](C)CO)C[C@@H]1C	1.5
CNc1ncnc2c1ncn2[C@H]1CN(Cc2ccc(F)cc2)C[C@@H](CO)O1	0.7
C[C@@H]1CN([C@H](C)CO)C(=O)c2cc(N(C)C)ccc2O[C@@H]1CN(C)Cc1ccc2c(c1)OCO2	1.4
CCCC(=O)Nc1ccc2c(c1)C(=O)N(C)[C@H]1CC[C@H](CC(=O)NCCN3CCCCC3)O[C@@H]1CO2	-3.1
COc1ccc(CN(C)C[C@@H]2Oc3c(NC(=O)Nc4ccc(C(F)(F)F)cc4)cccc3C(=O)N([C@H](C)CO)C[C@@H]2C)cc1	9.5
CCCNC(=O)N(C)C[C@H]1Oc2cc(-c3ccc(C)cc3)ccc2S(=O)(=O)N([C@H](C)CO)C[C@H]1C	-1.9
COc1ccc(NC(=O)N2C[C@@H]3[C@H](c4ccccc42)[C@H](CO)N3C(=O)C2CCCCC2)cc1	-1.5
C[C@H]1CN([C@@H](C)CO)S(=O)(=O)c2ccc(C#CC3CC3)cc2O[C@@H]1CN(C)CC1CCOCC1	7.4
Cc1ccc(S(=O)(=O)Nc2ccc3c(c2)C(=O)N([C@@H](C)CO)C[C@H](C)[C@H](CN(C)Cc2ccc(-c4ccccc4)cc2)O3)cc1	2.1
(continued)
SMILES	AF4-AF9 inh
CC(C)=CCC[C@H](C)C[C@@H]1CC2=C(C(=O)OC(C)(C)O2)[C@H](c2ccc(Cl)cc2)O1	-0.1
CC(C)[C@H](C)NC(=O)N(C)C[C@H]1OCc2ccccc2-c2ccccc2C(=O)N([C@H](C)CO)C[C@H]1C	-3.0
CCCC#Cc1ccc2c(c1)[C@H]1[C@H](CCN1C(=O)C1CC1)[C@H](CO)N2	6.2
CCOC(=O)[C@]12CCCC=C1N(Cc1cccc3ccccc13)C(=O)[C@H](CC(=O)NCCc1ccccc1OC)C2	0.7
CCOC1=C2[C@@H](CN(S(=O)(=O)c3ccc(C)cc3)[C@H]2c2ccccc2F)[C@H]2C(=O)N(C3CCCCC3)C(=O)[C@H]2C1	3.0
O=C(c1cnccn1)N1CC(=O)N2[C@H](CO)[C@H](c3ccc(C#CC4CCCC4)cc3)[C@@H]2C1	-0.3
CCC(=O)N(C)C[C@@H]1Oc2ncc(C#Cc3ccccc3)cc2C(=O)N([C@H](C)CO)C[C@@H]1C	-1.0
NC(c1csc(Nc2ccc(C(=O)NCCCO)cn2)n1)C1CCCCC1 (centres undefined)	1.0
C[C@@H]1CN([C@@H](C)CO)C(=O)c2cc(C#CC3(O)CCCC3)cnc2O[C@H]1CN(C)C(=O)C1CCOCC1	-2.2
CN(C)CC(=O)N1[C@@H]2Cn3c(cccc3=O)[C@H]1[C@@H](C(=O)NCc1ccccc1)[C@@H]2CO	-17
COc1ccc(CN(C)C[C@@H]2Oc3ccc(NS(=O)(=O)c4ccc(F)cc4)cc3CC(=O)N([C@@H](C)CO)C[C@H]2C)cc1	8.4
C=CCOC(=O)N1CCC2CC1c1c(-c3ccc(C(F)(F)F)cc3)cccc12 (centres undefined)	-1.4
Cc1ccc(S(=O)(=O)NC[C@@H]2CC[C@@H]3[C@@H](CN3Cc3ccccc3C(=O)O)O2)cc1	-7.5
C[C@H](CO)N1C[C@H](C)[C@H](CN(C)C)Oc2ccc(NS(=O)(=O)c3ccc(Cl)cc3)cc2CC1=O	-1.4
O=C(NCC[C@H]1CC[C@@H](NC(=O)C2CCCC2)[C@H](CO)O1)c1cc(Cl)cc(Cl)c1	-0.5
COc1ccc(NC(=O)N(C)C[C@H]2OCCCC[C@H](C)Oc3ccc(NC(=O)C4CCCCC4)cc3C(=O)N([C@H](C)CO)C[C@@H]2C)cc1	-2.3
C[C@@H]1CN([C@@H](C)CO)C(=O)c2cc(NC(=O)C3CC3)ccc2O[C@@H]1CN(C)S(=O)(=O)c1ccccc1	-1.4
CN(Cc1ccc(C(F)(F)F)cc1)C(=O)[C@H]1O[C@@H](n2cnc3c(N)ncnc32)[C@H](O)[C@@H]1O	-0.5
CCCNC(=O)N1C[C@@H](O)COC[C@H]2O[C@@H](CC(=O)NCc3ccncn3)CC[C@@H]21	-3.4
CC(C)CC#Cc1cnc2c(c1)C(=O)N([C@@H](C)CO)C[C@@H](C)[C@H](CN(C)Cc1ccccc1)O2	4.0
COCCCNC(=O)/C=C/[C@H]1O[C@@H](n2cnc3c(NC(=O)c4ccccc4)ncnc32)[C@H](O)[C@@H]1O	-1.0
C[C@H]1CN([C@@H](C)CO)C(=O)Cc2cc(NC(=O)Cn3cnnn3)ccc2O[C@@H]1CN(C)C	-7.4
C[C@@H]1CN([C@H](C)CO)S(=O)(=O)c2ccc(C#CC(C)(C)O)cc2O[C@H]1CN(C)C(=O)CN(C)C	-2.5
CCCNC(=O)N1C[C@@H](C)[C@H](OC)CN(C)C(=O)c2ccc(NC(=O)C3CCC3)cc2OC[C@H]1C	-2.2
COc1ccc(CN(C)C[C@H]2Oc3ccc(NC(=O)Cc4cn(C)c5ccccc45)cc3CC(=O)N([C@@H](C)CO)C[C@H]2C)cc1	4.5
The results go on.
SMILES	AF4-AF9 inh
CC(=O)N(C)C[C@H]1Oc2ncc(-c3ccc(C(=O)N(C)C)cc3)cc2C(=O)N([C@H](C)CO)C[C@@H]1C	-1.2
C[C@@H]1CN([C@@H](C)CO)C(=O)Cc2cc(NC(=O)Cc3cn(C)c4ccccc34)ccc2O[C@H]1CN(C)CC1CCCCC1	21
CO[C@H]1CN(C)C(=O)c2cc(NC(=O)C3CCC3)ccc2OC[C@@H](C)N(Cc2cccnc2)C[C@@H]1C	-3.3
O=C(Nc1ccccc1)N[C@@H]1CC[C@@H](CCNS(=O)(=O)c2cccc(F)c2)O[C@@H]1CO	-0.4
C[C@H](CO)N1C[C@H](C)[C@H](CN(C)S(=O)(=O)c2cccs2)Oc2ncc(-c3cccc(C(F)(F)F)c3)cc2C1=O	0.0
C[C@@H]1CN([C@@H](C)CO)C(=O)c2cc(C#Cc3ccccn3)cnc2O[C@H]1CN(C)Cc1ccncc1	-4.2
C[C@H]1CN([C@@H](C)CO)C(=O)c2cc(NC(=O)CCC(F)(F)F)ccc2O[C@H]1CN(C)Cc1ccc2c(c1)OCO2	-2.1
CN(C)c1ccc(-c2ccnc3c2CC(C)(C(=O)NCc2cccs2)O3)cc1 (centres undefined)	5.8
CC(C)C(N)c1csc(NC(=O)Nc2ccccc2C(C)(C)C)n1 (centres undefined)	8.3

Looked up above.
CC(C)C(N)c1csc(NC(=O)Nc2ccccc2C(C)(C)C)n1 (centres undefined) @ AF4-AF9 inh: 8.3
C[C@H](CO)N1C[C@H](C)[C@H](CN(C)S(=O)(=O)c2cccs2)Oc2ncc(-c3cccc(C(F)(F)F)c3)cc2C1=O @ AF4-AF9 inh: 0.0
CC(=O)N(C)C[C@H]1Oc2ncc(-c3ccc(C(=O)N(C)C)cc3)cc2C(=O)N([C@H](C)CO)C[C@@H]1C @ AF4-AF9 inh: -1.2
